From PubChem BioAssay
HIV TAR-Tat: HIV-1 TAR-Tat binding disruption | HIV-1 TAR RNA, Tat peptide displacement FRET; hits give high values | 100,000 tested, 0.6% active | z-score (concentration not given with the values);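 also: score is relative to mean and SD of negative controls; some compounds called inactive have numbers as strong as hits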
CDC25B-CDK2 inh: human CDC25B-CDK2/CyclinA binding inhibition; P30305+P24941; HTRF CDC25B-CDK2/CyclinA binding, anti-His/anti-Flag; hits give high values; z-score (concentration not given with the values); 94,000 tested, 0.72% active; AID 1259370;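 also: score is relative to mean and SD of negative controls; strong numbers were not always called active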
The depositor's hits bear a star; x = not tested or not shown.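 The calls were made as follows: active = z-score from 3 up in half or more of its runs; inactive = the rest.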 Random draw from the library; overall some 0.87% were active at least once.

SMILES | HIV TAR-Tat | CDC25B-CDK2 inh
c1ccc(CCNc2ncnc3sc4c(c23)CCCC4)cc1 | 1.2 | x
Cc1nn(C)c(C)c1CNC(=O)NC1CCCCC1 | 0.61 | x
CCc1ccc2oc(C(=O)N(Cc3ccc(C)cc3)C3CCS(=O)(=O)C3)cc(=O)c2c1 (stereo not drawn) | -1.4 | -1
N/C(=N/O)C1COc2ccccc2O1 (stereo not drawn) | x | -0.25
Cc1nn(C(C)(C)C)c(OC(=O)COc2ccc(Cl)cc2)c1S(=O)(=O)c1ccccc1 | x | -1.9
O=C(O)Cn1c(C(=O)O)cc2ccccc21 | 2.3 | x
COc1cc(C(=O)N=Nc2c(O)[nH]c3ccc(Br)cc23)cc(OC)c1OC | x | -2.8
CC1CCCN(c2nn3c(=O)c(C(=O)NC4CCCCC4)cnc3s2)C1 (stereo not drawn) | -0.03 | x
CCCCN1C(=O)C(=O)N(CCCC)C1=S | -0.02 | x
Nc1nc2n(n1)C(c1cccs1)CC(c1ccc(Br)cc1)N2 (stereo not drawn) | x | -1
O=C(OCc1cc(=O)n2nc(-c3cccs3)sc2n1)c1ccccc1 | -1.2 | x
CC(=O)Nc1cc([N+](=O)[O-])ccc1-n1cc(C)c(C(F)(F)F)n1 | x | -0.66
Cc1cc(C)c2c(=O)cc(C(=O)Nc3nnc(CC(C)C)s3)oc2c1 | 1.7 | -2.8
CCOC(=O)C1=C(C)NC2=C(C(=O)CCC2)C1c1ccc(N(C)C)cc1 (stereo not drawn) | 1.6 | -0.73
CCc1ccc(S(=O)(=O)c2nnn3c2nc(NCc2ccco2)c2cc(Cl)ccc23)cc1 | 1.3 | 0.06

(next part)
SMILES | HIV TAR-Tat | CDC25B-CDK2 inh
CCCCC1(Cc2ccccc2)C(=O)Nc2ccccc2C1=O (stereo not drawn) | x | 0.82
O=c1cc(-c2ccccc2)nc2nc(-c3ccco3)[nH]n12 | 6.5* | -0.39
Cc1ccc(-n2ccc(=O)c(C(=O)Nc3nc4ccc(C)cc4s3)n2)cc1 | 0.01 | -1.6
CC(C)C(NS(=O)(=O)c1ccc2c3c(cccc13)C(=O)N2C)C(=O)O (stereo not drawn) | 1.6 | -0.56
Cc1nc2c(N)nnc(N)c2nc1C | x | -0.73
CN(C)CCN1C(=O)C(=O)/C(=C(/O)c2ccccc2)C1c1ccccc1 (stereo not drawn) | x | -3.3
Oc1c(C(Nc2ccccn2)c2ccccc2Cl)ccc2cccnc12 (stereo not drawn) | 1.2 | -1.9
COc1cc(C2c3c(oc4ccc(F)cc4c3=O)C(=O)N2Cc2ccccc2)ccc1O (stereo not drawn) | 1.7 | -0.61
Cc1nn(CCCC(=O)NCCCN2CCN(C)CC2)c(=O)c2c1sc1ccccc12 | 1.8 | -1.7
O=C(NCCn1c(-c2ccc(F)cc2)nc2cccnc21)c1cnccn1 | -3.4 | x
Cc1nnc(SCC(=O)Nc2ccc(F)c(Cl)c2)s1 | 0.76 | -0.04
COc1ccc(OCC(=O)N(Cc2ccco2)C2CCS(=O)(=O)C2)cc1 (stereo not drawn) | 2.2 | -1.1
CC1CC(C)CN(CCCn2cnc3c([nH]c4ccc(Cl)cc43)c2=O)C1 (stereo not drawn) | 2.2 | -0.1
CC(C)CCn1c(=O)[nH]c2ncccc2c1=O | 0.47 | -1.4
CN(C)c1ccc(NC(=O)CSc2nc(-c3cccs3)cc(C(F)(F)F)n2)cc1 | 0.49 | -0.36

Some of the entries above in a different format:
Structure: Oc1c(C(Nc2ccccn2)c2ccccc2Cl)ccc2cccnc12 (stereo not drawn)
- HIV TAR-Tat = 1.2
- CDC25B-CDK2 inh = -1.9
Structure: COc1cc(C2c3c(oc4ccc(F)cc4c3=O)C(=O)N2Cc2ccccc2)ccc1O (stereo not drawn)
- HIV TAR-Tat = 1.7
- CDC25B-CDK2 inh = -0.61
Structure: Cc1nn(CCCC(=O)NCCCN2CCN(C)CC2)c(=O)c2c1sc1ccccc12
- HIV TAR-Tat = 1.8
- CDC25B-CDK2 inh = -1.7
Structure: O=C(NCCn1c(-c2ccc(F)cc2)nc2cccnc21)c1cnccn1
- HIV TAR-Tat = -3.4
- CDC25B-CDK2 inh = x

Later entries
SMILES | HIV TAR-Tat | CDC25B-CDK2 inh
CCC(C)NS(=O)(=O)c1ccc2c(c1)CC(C)N2C(=O)C1CC1 (stereo not drawn) | 1.4 | x
Cc1ccc(Nc2nc(NCCN3CCOCC3)nc3c2cnn3C)cc1Cl | 2 | x
O=S(=O)(Cc1ccccc1Cl)c1ccc2c(c1)S(=O)(=O)N=CN2 | -1.8 | x
O=C(Cn1c(=O)c2cccn2c2ccc(F)cc21)NCCCN1CCCCC1 | 0.4 | x
CSCCOC(=O)c1[nH]c2c(c1C)C(=O)CC(c1ccco1)C2 (stereo not drawn) | 2.7 | -0.11
COC(=O)Cn1c(C(O)c2ccccc2)nc2ccccc21 (stereo not drawn) | 0.97 | -1.4
O=C1CN(Cc2ccc(F)cc2Cl)S(=O)(=O)c2ccccc2N1Cc1ccc(Cl)cc1 | 1.9 | x
Cc1nc2c(cnn2-c2ccc(Cl)cc2)c(=O)n1-c1ccc(N2CCC(C)CC2)cc1 | 1.2 | x
O=C(CN1C(=O)c2cccnc2Sc2ccccc21)N1CCN(c2ccccn2)CC1 | 0.53 | x
CCN1CCN(c2ncnc3sc(C(=O)N4CCN(C(=O)c5ccco5)CC4)c(C)c23)CC1 | 2.3 | x
N/C(N=Nc1ccccc1)=N\Nc1ccccc1 | x | 0.05
CN(C)c1ccc(CN(Cc2ccco2)C(=O)c2cc(=O)c3cc(Cl)ccc3o2)cc1 | 0.76 | -2.4
CSc1ccc(-c2cccs2)nn1 | 2.1 | x
c1csc(CNc2nc3ccccc3n2CCN2CCOCC2)c1 | 0.75 | -0.64
CCC(C)NC(=O)N1CCC(CN2CC(C)CC(C)C2)CC1 (stereo not drawn) | 0.18 | x

Next part:
SMILES | HIV TAR-Tat | CDC25B-CDK2 inh
O=C(c1ccco1)N1CCN(c2cc(=O)n3nc(-c4ccccc4)sc3n2)CC1 | 0.22 | x
Cn1c(=O)[nH]c(=O)c2c1nc(NCc1ccco1)n2Cc1ccc(F)cc1 | 0.69 | -1.2
Fc1ccc(-c2csc3ncnc(NCCN4CCc5ccccc5C4)c23)cc1 | 0.42 | x
COc1ccc(-c2coc3c(C)c4oc(=O)c5ccccc5c4cc23)cc1F | -0.16 | 1.8
CCOC(=O)c1c(C)n(C)c2ccc(OC(=O)OC)cc12 | -0.73 | -0.59
C=CCOc1ccc(C2CC(=O)Nc3nc(N)[nH]c(=O)c32)cc1 (stereo not drawn) | 0.19 | -1.5
CC(C)NC(=O)COCc1cc(-c2cccs2)on1 | -0.34 | x
Cc1ccc(C2C3=C(CC(C)(C)CC3=O)Nc3nc(SCC(=O)c4ccccc4)nn32)cc1 (stereo not drawn) | -0.82 | -0.69
Cc1cccc(-c2nc(Cn3c(=O)cc(C(F)(F)F)c4c(C)nn(C)c43)c(C)o2)c1 | 1.7 | x
Nc1cc(-c2ccc(Cl)cc2)nn1S(=O)(=O)Cc1ccccc1 | x | -2.9
Cc1cccc(N2CSC3=C(C#N)C(c4ccc(F)cc4)CC(=O)N3C2)c1 (stereo not drawn) | -1.2 | 4.1*
COC(=O)c1ccc(CSc2nc3c(c(=O)[nH]2)CCC3)cc1 | 2.2 | -0.29
CC(C)CC1=NN(C(=O)c2ccco2)C(O)(C(F)(F)F)C1 (stereo not drawn) | x | -2.5
CCOC(=O)c1cnc(Nc2nc(-c3ccccc3)c3ccccc3n2)nc1C | -2.6 | -3.9
O=C(NC(=O)C1CCN(c2ncccc2[N+](=O)[O-])CC1)Nc1ccc(Cl)cc1 | x | 0.13

Shown with two lines to a compound: three of the compounds above
Each structure is followed by: HIV TAR-Tat	CDC25B-CDK2 inh
Cn1c(=O)[nH]c(=O)c2c1nc(NCc1ccco1)n2Cc1ccc(F)cc1
  0.69	-1.2
CCOC(=O)c1cnc(Nc2nc(-c3ccccc3)c3ccccc3n2)nc1C
  -2.6	-3.9
Fc1ccc(-c2csc3ncnc(NCCN4CCc5ccccc5C4)c23)cc1
  0.42	x

(next part)
SMILES | HIV TAR-Tat | CDC25B-CDK2 inh
CCC(C)NC(=O)C(CC)n1c2ccccc2c2nc(=O)cc(C)n21 (stereo not drawn) | -3.1 | -1.3
CC(=O)N1c2ccc(S(=O)(=O)N3CCOCC3)cc2CC1C(=O)NCCSCc1ccco1 (stereo not drawn) | 0.96 | x
O=C1c2[nH]nc(-c3ccccc3O)c2C(c2ccc(F)cc2)N1CC1CCCO1 (stereo not drawn) | 0.95 | 1.1
COc1ccc(CNc2nc(N3CCN(C4CCCCC4)CC3)nc3c2cnn3C)cc1 | 1.1 | x
Cc1nn(-c2nncc(-c3ccc(Cl)cc3)n2)c2c1C(c1ccc(O)cc1)CC(=O)N2 (stereo not drawn) | 4.7 | 3.4
Cc1c(-c2ccco2)[n+](=O)c2c(n1[O-])CCCC2 | x | 0.11
COC(=O)c1ccc(Cl)c(-n2cccc2)c1 | -1.6 | -2.7
Cn1cnc2c1c(=O)n(Cc1cc3c(cc1Br)OCO3)c(=O)n2C | -0.32 | -0.1
CCOC(=O)c1cc(S(=O)(=O)Nc2cc(OC)cc(OC)c2)[nH]n1 | 0.96 | x
Cc1onc(C(=O)N(C)C)c1-c1ccnc(=S)[nH]1 | x | -1.1
O=c1[nH]cc([N+](=O)[O-])c(=O)[nH]1 | x | -2
COc1ccc(-c2nc(-c3cc4cc(OC)ccc4[nH]c3=O)no2)cc1 | 8.1 | 2.9
CC1Cn2c(C(=O)NCCc3cccs3)cc3cccc(c32)S1 (stereo not drawn) | 1.9 | x
COC(=O)c1cc(S(=O)(=O)NC2CCCCC2)cn1C | 2.3 | -0.43
CC(C)c1cc(C2CCCN2C(=O)c2cc(-c3ccccc3)on2)no1 (stereo not drawn) | 2.3 | x

Other records:
SMILES | HIV TAR-Tat | CDC25B-CDK2 inh
Cc1c(C(=O)N2CCN(C)CC2)sc2nc3n(c(=O)c12)CCCC3 | 1.4 | x
O=C(CSc1nc(-c2ccccc2F)nc2cc(=O)[nH]n12)NCc1nc2ccccc2[nH]1 | 1 | x
O=C1CC(c2ccc(Br)cc2)c2cc3c(cc2N1)OCO3 (stereo not drawn) | x | -2
O=c1c(S(=O)(=O)c2cccc(F)c2)c[nH]c2cc(Cl)c(F)cc12 | 0.64 | -1.8
O=C(CN1CCN(Cc2ccccc2)CC1)Nc1ccc(C(F)(F)F)cc1Cl | x | -1.9
CCc1ccc(S(=O)(=O)c2nnn3c2nc(NCCCOC(C)C)c2sccc23)cc1 | 0.63 | x
CCCCN(CC)C(=O)c1sc2nc3n(c(=O)c2c1C)CCCCC3 | -4.4 | x
CCCCOC(=O)C1C2C=CC3(CN(CCc4ccccc4)C(=O)C13)O2 (stereo not drawn) | 0.52 | -1
O=C(OCCSc1ccc(Cl)cn1)c1cccc(Cl)c1 | x | -2.2
Cn1c(C(=O)O)c(CC(=O)NCC2COc3ccccc3O2)c2ccccc21 (stereo not drawn) | x | 0.82
O=C1Cc2cc(S(=O)(=O)N3CCN(c4ccccc4)CC3)cc3c2N1CCC3 | 0.57 | x
Cc1ccc(-n2c(-c3ccccc3)c[n+]3c2CCCCC3)cc1 | 0.99 | -1.1
CSc1cccc(NC(=O)NCCc2csc(C)c2C)c1 | -0.86 | x
Cn1c(SCc2nn[nH]n2)nc2c1c(=O)n(Cc1ccccc1Cl)c(=O)n2C | 1.8 | -1.1
CC(C)(C)NS(=O)(=O)C1CCS(=O)(=O)C1 (stereo not drawn) | 1.8 | -1.8

Continued.
SMILES | HIV TAR-Tat | CDC25B-CDK2 inh
Cc1csc(NC(=O)C(F)(F)F)c1-c1nc2ccccc2s1 | x | -7.1
Cc1cc(F)ccc1NS(=O)(=O)c1ccc2c(c1)NC(=O)CCS2 | 0.46 | x
CCN(CC)S(=O)(=O)c1ccc2c(c1)oc(=O)n2CC(=O)N(C)C1CCCCC1 | 2.3 | x
CN(Cc1ccccc1)C(=O)CSc1nc(-c2ccco2)cc(C(F)(F)F)n1 | 3.4 | 0.15
O=C(Cn1cnc(S(=O)(=O)N2CCOCC2)c1)N(Cc1ccco1)CC1CCCO1 (stereo not drawn) | 0.5 | x
Cc1nc(C)c(S(=O)(=O)N2CCC(C(=O)c3ccccc3)CC2)s1 | x | -2
O=C(NCc1ccccn1)Nc1csc2ccccc12 | x | -2.7
O=C(C1COc2cc(S(=O)(=O)N3CCN(c4ccccc4F)CC3)ccc2O1)N1CCOCC1 (stereo not drawn) | 0.88 | x
Cc1c(C(=O)N2CCCCC2C)sc2ncn(CC(=O)N3CC(C)CC(C)C3)c(=O)c12 (stereo not drawn) | x | -1.4
COc1ccc(Nc2nc3ccc(C)cc3n3nnnc23)cc1OC | 0.1 | x
Cc1c(NC(=O)Nc2ccc(Br)cc2F)c(=O)n(-c2ccccc2)n1C | 0.25 | -1.2
COc1ccc(S(=O)(=O)N2Cc3ccccc3CC2C(=O)N2CCOCC2)cc1 (stereo not drawn) | x | -1.5
O=S(=O)(NCc1ccccc1)c1cc(S(=O)(=O)c2ccc(Cl)cc2)ccc1Cl | x | 0.14
CC1CCCC2(C1)NCCN=C2NCc1ccc(Cl)cc1 (stereo not drawn) | -0.55 | x
COC(=O)c1sccc1NC(=O)c1cc2c(s1)-c1ccc(Cl)cc1S(=O)(=O)C2 | 4.3 | -0.12
CCOC(=O)c1c(C)nn(-c2ccc(NC(=O)c3cccs3)cc2)c1C | x | -2.3
CCOC(=O)C1CCN(c2nc3c(S(=O)(=O)c4ccccc4)nnn3c3ccsc23)CC1 | 0.96 | x
